Screening results (PubChem BioAssay)
D2 agonist – activates the human D2 dopamine receptor. P14416. DiscoveRx PathHunter D2 beta-arrestin, luminescence, 90 min; 100% = 57 uM dopamine signal. activation, % (test concentration not listed). actives 0.084% (n = 360,000); in the data active = activation above about 40%; inconclusive = about 15% to 40%; inactive = below about 15%; further: compound concentration not given in the record; the text of the record calls up to 30% inactive
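Agonist mode: compounds alone added to overnight-plated D2 PathHunter cells for 90 min at 37 C, with 57 uM final dopamine (EC100) defining full response. Beta-arrestin recruitment detected by chemiluminescent reagent, read after 1 h at ambient temperature.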
TRPML1 inh – inhibitors of human TRPML1 channel; actives 0.02% (n = 390,000); TRPML1-inducible cells, Ca2+ dye fluorescence, FDSS; hits give low values; inhibition of EC80 agonist-evoked calcium signal; Q9GZU1; AID 624415; activity change, negative = inhibition, % (concentration not given with the values); in the data active means activity change below about -50%; inconclusive means about -30% to -50%; inactive means above about -30%;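 further: stimulus is agonist 54-4 at its EC80 concentration; on the % scale 0 is the no-effect control and ±100 the full control effect; compound concentration not given in the record; the text of the record puts the active cut at -80%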
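Tet-induced TRPML1-DL cells loaded with Ca8 no-wash calcium dye were read kinetically on FDSS. Compound addition was followed by EC80 agonist 54-4 (4 uM final); inhibition was read over 110 s.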
Six1-Eya2 inh – inhibitors of human Six1/Eya2 interaction; activity change, % (concentration not given with the values); actives 0.56% (n = 360,000); AID 651725; AlphaScreen GST-Six1/His-Eya2 binding, biochemical; hits give low values; control for the full effect not named in the record; in the data active = activity change below about -65%; inconclusive = about -30% to -65%; inactive = above about -30%; further: on the % scale 0 is the no-effect control and ±100 the full control effect
Target sequence (O00167 whole entry, looked up): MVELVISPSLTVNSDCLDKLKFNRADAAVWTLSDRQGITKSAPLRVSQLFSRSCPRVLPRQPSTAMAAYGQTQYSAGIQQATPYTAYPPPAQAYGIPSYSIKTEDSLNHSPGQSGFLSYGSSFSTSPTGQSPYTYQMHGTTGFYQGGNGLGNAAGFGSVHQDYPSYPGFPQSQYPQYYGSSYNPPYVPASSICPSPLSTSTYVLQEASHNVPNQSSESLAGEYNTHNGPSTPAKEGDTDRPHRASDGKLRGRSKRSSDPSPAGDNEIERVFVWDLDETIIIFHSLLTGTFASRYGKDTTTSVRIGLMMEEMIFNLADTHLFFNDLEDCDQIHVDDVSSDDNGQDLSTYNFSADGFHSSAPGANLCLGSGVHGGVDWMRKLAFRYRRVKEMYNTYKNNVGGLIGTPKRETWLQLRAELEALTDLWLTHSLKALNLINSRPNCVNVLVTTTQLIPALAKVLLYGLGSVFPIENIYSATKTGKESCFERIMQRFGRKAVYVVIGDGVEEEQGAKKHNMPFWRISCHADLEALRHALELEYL
Target sequence (Q15475 whole entry, looked up): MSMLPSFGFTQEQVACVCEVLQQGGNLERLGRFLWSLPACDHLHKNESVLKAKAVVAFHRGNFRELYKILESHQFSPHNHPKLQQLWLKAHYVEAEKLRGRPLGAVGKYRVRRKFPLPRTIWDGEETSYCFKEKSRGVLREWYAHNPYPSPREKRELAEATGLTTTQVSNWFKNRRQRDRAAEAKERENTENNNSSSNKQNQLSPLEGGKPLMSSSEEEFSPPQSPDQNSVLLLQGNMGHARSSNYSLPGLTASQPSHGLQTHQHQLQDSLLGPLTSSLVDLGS
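Compounds are tested against tagged Six1 and Eya2 proteins bridged by glutathione donor and nickel acceptor beads; after a one-hour incubation at 37 °C without light, AlphaScreen emission is recorded.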
TRPML1 ag – human mucolipin-1 channel agonism | Q9GZU1 | TRPML1-expressing cells, Ca2+ dye fluorescence, FDSS; host cell line not named in the record; reference of the full effect not given here | activation, % (concentration not given with the values) | actives 0.12% (n = 410,000) | AID 624414; in the data active = activation above about 50%; inconclusive = about 30% to 50%; inactive = below about 30%; further: 0% is about no effect; the text of the record puts the active cut at 80%
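Cells: TRPML1-DL, 1X Tet inducer, ~16 h at 37 degrees C/5% CO2. Dye: ABD Ca8 no-wash + quencher, 45-90 min RT. Read: 10 s baseline, compound add, 110 s agonist phase; 54-4 EC80 (4uM final), 110 s antagonist phase.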
D2 PAM – potentiates the human D2 dopamine receptor allosterically; P14416; DiscoveRx D2 beta-arrestin cells, luminescence, 90 min; 100% = 57 uM dopamine signal; potentiation, % (concentration not given with the values); actives 0.23% (n = 360,000); AID 624464; active = potentiation of 50% or more; inconclusive = 30% to 50%; inactive = 30% or less;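 further: compound concentration not given in the record; tested on top of an EC20 dose of dopamine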
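PathHunter beta-arrestin assay in DiscoveRx D2 cells. Compounds were added with an EC20 of dopamine (50 nM final) for 90 min at 37 deg C. Luminescence was read 1 h after detection reagent, with 57 uM dopamine as the EC100 control.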
PINK1 expr mod – PINK1 expression modulation; PINK1 immunofluorescence, high-content cytometry, 24 h; Potency, µM (series often up to 76.6 µM), for the others: at the highest dose activation (PINK1 increase), most hits filed as activators; actives 0.2% (n = 410,000); active = well fitted activation curve with a large enough effect; inconclusive = small, poorly fitted or top-dose-only effect; inactive = flat fitted curve, though single readings scatter; cell line not stated here;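 further: potency means the concentration at half of the fitted maximal effect; % of control where 0% means no effect; nearly all actives have a fitted effect of over 65% in size; a mitochondrial uncoupler was the plate control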
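Cells are seeded, rested 12 hours, then given compound at five concentrations or DMSO for 24 hours. After fixation, blocking and antibody staining, PINK1 amount and mitochondrial localization are scored; CCCP serves as control.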
* marks the source's active call; other numbers are inactive results; ? = inconclusive; · = no result given; & = joins results of further samples; [ ] = dose if it differs, or a comment.

SMILES	D2 agonist	TRPML1 inh	Six1-Eya2 inh	TRPML1 ag	D2 PAM	PINK1 expr mod
N#Cc1ccc(NC(=O)COC(=O)CSc2nnc(-c3ccc(Cl)cc3)o2)cc1	0.0	16.5	5.4	5.6	1.6	-1.3%
Cc1nc2cc(NC(=O)C3COc4ccccc4O3)ccc2s1 (stereo not given)	-1.2	3.4	4.6	-0.6	-0.2	1.4%
COC(=O)c1ccc(Sc2ccccn2)c([N+](=O)[O-])c1	-2.6	-10.2	6.2	0.3	3.4	-3.4%
Cc1cccc(Nc2nnc(SCC(=O)NCC3CCCO3)s2)c1 (stereo not given)	-5.0	5.2	?	-0.3	-17.0	-1.8%
Fc1ccc(-n2nnnc2-c2cnc(-c3cccs3)nc2C(F)(F)F)cc1	9.9	-8.7	2.7	0.2	17.1	10.3%
CCN(CC)CCN(Cc1cc2cc(C)ccc2[nH]c1=O)C(=S)NCc1ccco1	-1.3	-0.4	-12.2	0.7	-24.5	2.4%
COc1ccccc1NC1C=CS(=O)(=O)C1 (stereo not given)	-2.1	12.0	-0.2	-0.2	-2.8	4.9%
COc1cc(/C=N/NC(=O)c2c(-c3c(Cl)cccc3Cl)noc2C)ccc1OCC(N)=O	1.5	36.7	0.7	1.0	17.4	0.3%
COc1ccc(-c2cc(C(=O)NCc3ccc(C)cc3)c3cc(C(C)C)ccc3n2)cc1	·	13.9	·	-0.4	·	-2.2%
COC(=O)c1ccc(NC(=O)N2CCN(c3nnc(C)c4c(C)n(-c5ccccc5)nc34)CC2)cc1	·	7.3	·	2.0	·	-0.3%
COc1cc(C(=O)NCCCC2CCCC2)ccc1OC1CCN(C(C)=O)CC1	-2.4	-6.3	5.4	0.1	-20.8	-1.4%
COc1cccc(/C=C/C(=O)OCC(=O)c2c(N)n(C)c(=O)n(C)c2=O)c1	2.0	5.4	-15.6	1.7	-9.7	2.6%
Cc1ccccc1C(=O)NC1CCN(C(=O)Nc2ccccc2Cl)CC1	4.8	-9.1	5.0	0.4	-8.9	-0.6%
CCc1ccccc1NC(=O)Cn1c(=O)n(-c2ccc(C)cc2)c(=O)c2cc(OC)c(OC)cc21	·	-2.4	·	0.1	·	1.1%
COc1ccccc1CNC(=O)N1CCN(S(=O)(=O)c2ccc(Cl)cc2)CC1	0.3	-12.4	-6.7	-0.6	-2.8	-1.5%
Cn1cccc1CNC(=S)Nc1ccccc1F	-2.5	1.8	-13.9	-0.2	-2.4	0.4%
O=C(NCCCN1CCCC1)Nc1ccc(F)cc1	2.9	32.8	2.2	0.6	-14.6	-0.1%
COc1cc(/C=N/NC(=O)CCC(=O)NCc2ccccc2)cc(OC)c1OC	-0.5	10.0	-12.2	-0.3	3.7	2.8%
Cc1ccc(NS(=O)(=O)c2c(C)[nH]c(=O)[nH]c2=O)cc1F	2.8	13.1	7.9	3.2	5.7	-2.9%
Cn1nc(C(=O)N2CCN(c3ccc(Cl)cc3)CC2)c2c1-c1ccccc1SC2	·	8.9	·	0.0	·	1.3%
CCN1CCN(C(=O)C(C)N(c2ccc(C)cc2)S(C)(=O)=O)CC1 (stereo not given)	-5.1	12.3	-5.0	1.1	-17.4	1.7%
CC(=O)Nc1cncc(-c2cnn(CC(C)C)c2)n1	3.8	·	33.8	-0.4	-2.6	2.4%
Cc1[nH]nc2c1C(=O)CC(C)(C)C2	0.9	-12.6	10.5	-0.3	7.2	1.8%
CCn1c2ccccc2c2cc(/C=N/n3c(C)nnc3C)ccc21	0.0	-1.5	-3.6	0.7	-11.5	·
O=C(Nc1ccccc1)N(CCc1ccncc1)C1CCCCC1	-5.7	0.9	-2.3	-0.7	-5.2	-0.8%
COc1cccc(C(=O)NCc2ccccc2OC)c1	3.5	10.2	2.7	0.1	7.0	·
COC(=O)c1ccc(CSc2nnc(Nc3ccc(OC)cc3)s2)o1	-2.3	6.5	-10.3	-1.0	-10.8	-1.4%
Cc1cccn2c(CNCCSc3nccn3C)c(C(=O)N3CCCCC3)nc12	1.1	0.6	2.5	0.6	-4.6	-0.6%
Cc1ccc(S(=O)(=O)N2CCC(C(=O)OCc3ccccc3)CC2)cc1C	-1.7	9.2	1.2	6.7	-0.6	-0.7%
CCc1ccc(NC(=O)Cn2nc(C)n3cccc3c2=O)cc1	-0.6	-2.2	2.6	0.7	1.3	0.2%
CCOC(=O)CNC(=O)Cn1cnc2c(nnn2-c2ccc(C)cc2)c1=O	-2.4	-3.8	0.0	0.0	4.3	4.7%[38.3 µM]
Cc1ccc(C)c(S(=O)(=O)N2CCCC2CNC(=O)C(=O)NC2CCCCCC2)c1 (stereo not given)	-2.7	8.8	5.9	0.0	-2.9	1.1%
CCc1ccccc1NC(=O)Cn1nnc(C(=O)NCc2cccs2)c1N	-1.6	-7.8&36.6	7.5	-0.2&-1.0	-3.7	8.1%&8.7%
COc1ccccc1C(=O)N/C(=C\c1cn(C)c2ccccc12)C(=O)NCCCN1CCOCC1	-3.1	30.1	6.0	1.5	-4.0	0.0%
O=C(CSc1oc(-c2ccc(F)cc2)nc1S(=O)(=O)c1ccc(Cl)cc1)c1ccccc1	·	12.3	·	1.1	·	-1.6%
N#Cc1ccccc1COC(=O)c1ccc(Br)o1	-0.7	4.1	8.2	-0.4	-2.4	-0.3%
O=C(NC1CC(=O)N(c2ccc(Cl)cc2)C1)C1CCCCC1 (stereo not given)	·	3.0	·	-0.2	·	0.9%
CC1(C(=O)NS(=O)(=O)c2ccc(C#N)cc2)CCN1C(=O)c1ccccc1CCc1ccccc1 (stereo not given)	5.3	·	-0.1	-0.9	6.1	0.6%
O=C(c1ccc(COc2ccccc2Cl)o1)N1CCN(Cc2ccc3c(c2)OCO3)CC1	-2.4&-0.3	27.2&-8.5	-25.8&-7.6	5.2&3.8	-33.1&-10.5	19.4%&-0.3%
CC1=NN(C(=O)c2ccc(Br)cc2)C(O)(C(F)(F)OC(F)(F)F)C1 (stereo not given)	-3.2	-0.8	4.7	0.6	0.2	?

Another view of two compounds above:
Each structure is followed by: D2 agonist | TRPML1 inh | Six1-Eya2 inh | TRPML1 ag | D2 PAM | PINK1 expr mod
- Cc1ccc(S(=O)(=O)N2CCC(C(=O)OCc3ccccc3)CC2)cc1C
  -1.7 | 9.2 | 1.2 | 6.7 | -0.6 | -0.7%
- N#Cc1ccccc1COC(=O)c1ccc(Br)o1
  -0.7 | 4.1 | 8.2 | -0.4 | -2.4 | -0.3%

(listing goes on)
SMILES	D2 agonist	TRPML1 inh	Six1-Eya2 inh	TRPML1 ag	D2 PAM	PINK1 expr mod
COc1cc(NC(=S)NCCSc2ccc(C)cc2)cc(OC)c1	-1.7	?	-6.0	0.3	-6.8	-0.1%
CCOc1ccc(-n2cnc3scc(-c4ccc(OC)c(OC)c4)c3c2=O)cc1	-0.5	-16.2	-20.7	0.2	-6.2	3.2%
CCOC(=O)C(=O)NCC1CCCN1S(=O)(=O)c1cccs1 (stereo not given)	-0.2	25.0	-0.9	-0.7	8.9	1.7%
Cc1cc(=O)c(C(=O)O)nn1-c1ccc(Cl)cc1	-3.1	5.7	5.6	0.3	-7.5	1.0%
CCOC(=O)c1c(S(=O)(=O)N2CCN(c3cc(Cl)ccc3C)CC2)c(C)n(C)c1C	·	-0.6	·	0.1	·	2.2%
Cc1cc(=O)oc2cc(OCc3ccc(C(=O)N4CCN(c5ccccc5)CC4)cc3)ccc12	5.3	-8.8	-10.1	-0.1	-5.2	-1.9%
COc1ccccc1CN1COc2ccc3c(oc(=O)c4ccccc43)c2C1	·	5.3	·	0.1	·	0.9%
COc1ccc(Cn2c(=S)[nH]c3ccccc32)cc1	0.6	2.9	1.2	-0.3	1.6	3.4%
Cc1cccc(NC(=O)C2(C)Cc3ccccc3C(=O)O2)c1 (stereo not given)	·	-8.3	·	0.9	·	0.4%
O=C(Nc1ccc2c(c1)OCCO2)c1[nH]c(C(F)(F)F)nc1-c1ccccc1	4.2	-16.0	-22.9	-0.2	-3.7	?
CCOC(=O)c1ccc(N2C(=O)c3n[nH]c(-c4ccco4)c3C2c2ccc(O)c(OCC)c2)cc1 (stereo not given)	·	-5.0	·	0.9	·	-1.1%
O=C(Nc1ccc(F)cc1)C1CCCN(S(=O)(=O)c2cccc3nonc23)C1 (stereo not given)	-0.4	2.1	0.9	-0.3	-3.2	19.0%
O=C(c1ccc(Cl)cc1)N1CCN(c2ccc(F)cc2)CC1	-3.8	-14.2	-3.0	-0.2	-11.2	-0.5%
Cc1nc(NC(=O)/C=C/c2ccccc2)sc1C(=O)N(C)C	0.6	10.2	5.9	0.2	0.4	-0.1%
CCC1Oc2ccc(C)cc2N(CC(=O)NCCCN2CCCCC2CC)C1=O (stereo not given)	-2.4	-9.7	3.7	-0.1	-11.7	6.3%[38.3 µM]
COCCOC(=O)C1=C(C)NC2(O)c3ccccc3C(=O)C12O (stereo not given)	-9.1	2.6	3.2	1.1	-9.6	-0.3%
COC(=O)C1CC(=O)c2ccsc2C1 (stereo not given)	-4.0	5.7	0.8	-0.4	-7.3	0.9%
CC(C(=O)Nc1ccccc1Br)N1c2cccc3cccc(c23)S1(=O)=O (stereo not given)	5.1	21.5	22.0	3.2	-0.2	0.3%
O=C(CNC(=O)c1ccc(Cl)cc1Cl)NCC1CCCO1 (stereo not given)	-3.9	-8.5	13.9	0.2	-2.5	0.9%
CC1CCCCC1NC(=O)COC(=O)c1ccc([N+](=O)[O-])o1 (stereo not given)	11.2	14.2	3.7	0.3	8.3	2.4%
Cn1c(=O)[nH]c(=O)c2c1nc(N/N=C/c1ccncc1)n2Cc1ccc(Cl)cc1	0.9	10.0	1.1	-0.7	2.0	0.9%
Nc1ccc(Nc2ccc([N+](=O)[O-])cc2[N+](=O)[O-])cc1	0.5	-7.5	-29.6	5.4	0.6	0.5%
Cc1ccc(NC(=S)N(Cc2ccco2)C2CCN(C(C)C)CC2)cc1	-5.0	9.6	1.8	0.1	-22.7	0.2%
Fc1ccc(CSc2nnc3ccccn23)c(Cl)c1	-6.7	13.7	0.0	0.3	-16.9	-0.5%
COc1ccc(N(Cc2nnc3n2CCCCC3)C(=O)Nc2cccc(C)c2)cc1Cl	·	2.3	·	0.2	·	-3.8%
O=C(CCCOc1ccc(Cl)cc1Cl)NCCCn1ccnc1	3.5	6.5	-2.7	-0.5	-13.0	1.3%
Cc1occc1C(=O)NNC(=S)NC(=O)COc1ccc(Cl)cc1Cl	-2.3	7.5	19.1	-0.2	-15.6	1.4%
CS(=O)(=O)N(CC(=O)N1CCCCCC1)c1ccc2c(c1)OCCO2	0.8	5.5	-13.7	-0.2	1.4	-3.9%[38.3 µM]
O=C(Nc1cccnc1)c1cccc(-c2cc3ccccc3oc2=O)c1	-1.1	0.6	4.4	-0.3	0.9	-0.4%
CC(=O)NNc1ncnc2ccccc12	-2.0	26.9	3.8	0.3	-12.8	1.1%
COc1cccc(-c2csc(NC(=O)Nc3ccccc3)n2)c1	12.5	·	-22.0	·	5.4	?
CC(CNC(=O)Cn1c(-c2cccs2)cc2cc(Cl)ccc21)c1ccccc1 (stereo not given)	·	17.6	·	-0.1	·	-0.5%
CCOc1ccc(/C=C/C(=O)c2c(O)c3ccccc3oc2=O)cc1	-2.3	-9.3	-12.3	1.3	-14.6	-0.7%
CC(C)n1nc(C(=O)NCCc2ccc(S(N)(=O)=O)cc2)c2ccccc2c1=O	-1.6	-17.8	-0.1	-0.5	-2.1	-0.3%
